HSV replic up: increases HSV replication in cells | HSV replication augmentation in cells, fold increase | maximum fold increase | 220,000 tested, 0.005% active | AID 1956;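 active = peak rise of 1.5-fold or more in the series; inconclusive = self-fluorescent or not available for retest; tested in PC3 cells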;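 note: first round at 10 µM; read as green reporter fluorescence; hits show the peak of a series up to 25 µM; 1 = signal of infected wells without compound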
INS promoter inh: TRM-6 insulin promoter activity inhibition. TRM-6 cells (human fetal islet line), insulin promoter-eGFP reporter, imaging; reporter expression induced with tamoxifen. inhibition, % at 2 µM. 130,000 tested, 0.9% active. AID 1273;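 active = inhibition above the mean plus 3 SD, with well images judged a real hit on visual review, cut at about 60% in these data, passing the limit was not always enough; inconclusive = inhibition over the cutoff but images rejected on review; inactive = inhibition not above the cutoff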
GALR2 ag: activates the human galanin receptor 2. O43603. GALR2-expressing cells, agonist activation read-out. activation, %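 (tested at 5 µM)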. 140,000 tested, 0.48% active. AID 803;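 active = above mean plus 3 SD of all compounds, about 5% in these data, not always enough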;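 note: 0% = vehicle buffer wells and 100% = reference agonist at full effect; tested in CHO reporter cells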
RGS16-Gao: modulates binding between human RGS16 and Galphao; O15492+P09471; bead-based flow cytometry RGS16-Galphao binding, fluorescence; actives lie on both sides; binding response (% of control), % at 10 µM; 220,000 tested, 0.38% active; AID 1441;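 active = below 25% or above 175%, edge rows of some plates excepted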;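 note: Galphao activated by GDP with aluminum fluoride before binding; 100% = wells without compound and 0% = beads without RGS; some results beyond the cut were filed as inactive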
PKD1 inh: blocks activity of human protein kinase D1 | Q15139 | PKD1 kinase fluorescence polarization assay | inhibition, %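 (about 10 µM by stock and volumes)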 | 200,000 tested, 0.056% active | AID 797;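 active = inhibition of 50% or more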;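 note: controls were vehicle for no effect and a reference inhibitor for full effect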
Target sequence (Q15139 whole entry, looked up): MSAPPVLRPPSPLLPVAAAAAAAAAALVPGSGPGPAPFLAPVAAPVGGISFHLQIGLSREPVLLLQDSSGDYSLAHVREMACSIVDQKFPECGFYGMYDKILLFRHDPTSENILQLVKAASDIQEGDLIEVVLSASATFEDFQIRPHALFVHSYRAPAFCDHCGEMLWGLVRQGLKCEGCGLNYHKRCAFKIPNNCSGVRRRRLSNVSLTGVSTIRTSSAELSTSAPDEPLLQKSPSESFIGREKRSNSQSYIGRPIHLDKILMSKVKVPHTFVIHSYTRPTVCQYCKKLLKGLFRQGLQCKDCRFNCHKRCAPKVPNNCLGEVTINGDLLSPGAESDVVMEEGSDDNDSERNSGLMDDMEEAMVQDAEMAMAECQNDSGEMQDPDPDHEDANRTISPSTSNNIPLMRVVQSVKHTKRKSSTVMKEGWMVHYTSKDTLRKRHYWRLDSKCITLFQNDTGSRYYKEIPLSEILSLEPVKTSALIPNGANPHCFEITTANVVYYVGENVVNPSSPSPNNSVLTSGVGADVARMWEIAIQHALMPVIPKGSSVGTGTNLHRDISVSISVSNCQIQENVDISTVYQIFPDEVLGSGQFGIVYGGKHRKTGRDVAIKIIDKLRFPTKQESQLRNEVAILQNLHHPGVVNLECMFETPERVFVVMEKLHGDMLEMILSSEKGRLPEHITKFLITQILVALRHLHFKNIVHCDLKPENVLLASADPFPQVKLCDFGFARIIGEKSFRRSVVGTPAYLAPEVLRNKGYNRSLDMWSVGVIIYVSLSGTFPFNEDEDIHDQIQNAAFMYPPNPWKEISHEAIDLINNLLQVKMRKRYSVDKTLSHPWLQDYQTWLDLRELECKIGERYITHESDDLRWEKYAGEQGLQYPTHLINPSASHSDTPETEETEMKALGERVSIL
INS promoter inh cell count: recorded beside INS promoter inh, whose call it bears; normalized cell count, %; measured here: cell count, toxicity; reference of the scale not given here;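 cells exposed to compound for 48 h; stained nuclei by imaging scaled within each plate; lower means fewer cells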
HSV replic up primary fold: also measured in HSV replic up; calls as there; fold increase; compound at 10 µM; measured here: primary screen fold increase 10 uM; tested in PC3 cells;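 GFP signal in the first replicate; 1 = infected wells without compound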
* = called active by the depositor; i = inactive; ? = inconclusive; / = no result given.

SMILES	HSV replic up	HSV replic up primary fold	INS promoter inh	INS promoter inh cell count	GALR2 ag	RGS16-Gao	PKD1 inh
COc1ccc(Br)c(C(=O)NC(C)(C)CO)c1	i	1.2	/	/	/	95	/
O=C(Nc1ccc2oc(-c3ccccc3)nc2c1)c1ccccc1F	i	1	-89	153	-2.7	58	-3
O=C(CCNS(=O)(=O)c1cccs1)NCc1cccs1	i	0.92	/	/	-3.2	98	4
Cc1cccc(NC(=O)CN2C(=O)N/C(=C\c3cccn3-c3cccc(C(=O)O)c3)C2=O)c1	i	0.97	/	/	/	109	-6
COc1ccc2c(c1)C1(Nc3ccccc3-c3nc4ccccc4n31)C(=O)N2 (stereo not drawn)	i	0.87	14	91	0.3	100	0
CC(NC(=O)c1cc2ccccc2o1)c1ccccc1 (stereo not drawn)	i	0.92	/	/	/	106	-7
COc1ccc(O)c(C(=O)c2cnn(C(=O)c3cc(C)oc3C)c2)c1	i	1	/	/	-2.2	101	-7
Cc1ccc(NC(=S)N(N)CCO)cc1	i	0.86	14	145	/	97	0
CC(=O)Nc1sc(C)c(C)c1C(=O)OCC(=O)Nc1cc(S(C)(=O)=O)ccc1Cl	i	1.1	/	/	/	102	/
C=CCSC1=C(C#N)C(c2ccccc2OCC)CC(=O)N1 (stereo not drawn)	i	0.93	/	/	-1.4	99	-6
Cc1cc(NC(=O)C2CC2)n(-c2nc3ccccc3s2)n1	i	1	27	19	/	107	-4
O=C(NNc1nc2cc3c(cc2s1)OCO3)c1cccc(F)c1	/	/	-75	60	-1.0	97	-3
COc1cc(NC(=O)c2ccc3snnc3c2)cc(OC)c1	i	0.91	/	/	/	98	/
Cc1noc(C)c1N=Nc1ccccc1C(=O)O	i	0.96	/	/	/	102	-1
Cc1nc2sc3c(c2c(=N)n1N)CC(C)(C)OC3	i	0.94	20	101	-1.8	107	-12
Cn1c(CN2CCOCC2)nc2cc(NC(=O)c3ccc(Cl)cc3)ccc21	i	0.93	/	/	-2.2	104	4
CCn1c(SC/C=C/c2ccccc2)nnc1-c1cnccn1	i	1.1	-67	83	-1.0	104	-12
COC(=O)C1=NN(c2ccccc2)C2C(=O)N(c3ccccc3OC)C(=O)C12 (stereo not drawn)	i	1.1	-13	96	0.5	102	-3
Cc1ccc(-n2nnnc2SCC(=O)N2c3ccccc3NC(=O)C2(C)C)cc1	i	0.87	/	/	-3.2	108	9
N#C/C(=C\c1ccc(-c2cccc(Cl)c2)o1)C(=O)Nc1cccc2cccnc12	?	/	-25	113	-2.4	102	-1
COCCn1c(Cc2ccccc2)nnc1SCC(=O)N1CCOCC1	i	1.1	/	/	/	102	-3
Cc1ccc(C(=O)Nc2ccc(O)cc2C(=O)O)cc1	i	0.88	15	143	-0.5	99	-3
CCN1CCN(c2nc(Nc3cccc(F)c3)nc(N)c2[N+](=O)[O-])CC1	i	0.99	/	/	/	106	/
CCC1CCCCN1CC(=O)c1c(C)[nH]c2ccc(OC)cc12 (stereo not drawn)	i	1.2	/	/	/	104	/
COc1ccc(C(=O)N2c3ccccc3C=CC2C#N)cc1 (stereo not drawn)	i	0.87	/	/	0.5	101	1
(more compounds)
SMILES	HSV replic up	HSV replic up primary fold	INS promoter inh	INS promoter inh cell count	GALR2 ag	RGS16-Gao	PKD1 inh
Cc1noc(C)c1S(=O)(=O)NCC(=O)O	i	0.93	58	82	-1.9	100	-8
Clc1ccccc1-c1ccc(/C=N/n2cnnc2)o1	i	0.88	/	/	-1.1	99	6
CCC(=O)Nc1sc2c(c1C(N)=O)CCN(C(C)=O)C2	i	0.91	-14	127	-0.7	106	-1
O=C(NC(=S)Nc1ccc(CN2CCCCC2)cc1)c1ccco1	i	0.95	/	/	/	107	-11
CCN(CC)S(=O)(=O)c1cccc(C(=O)c2c(C)cc3ccccn23)c1	i	0.98	/	/	-1.5	103	2
O=C(O)c1ccc(/C=N/Nc2cccc(C(F)(F)F)c2)cc1	i	0.9	/	/	/	101	-4
COc1ccc(S(N)(=O)=O)cc1N(C)S(=O)(=O)c1ccccc1	i	0.9	-44	131	/	103	-5
CC(C)S(=O)(=O)c1csc(C(=O)NN)c1Cl	i	0.98	/	/	/	99	/
Cc1ccc(-c2csc3ncnc(SCc4ccc(C(=O)O)cc4)c23)cc1	i	0.97	/	/	/	101	-5
O=c1cc(-c2cccc3ccccc23)[nH][nH]1	i	0.87	-18	124	-0.6	101	-7
CCCN1Cc2cccc(C(=O)N3CCN(c4cc(Cl)ccc4C)CC3)c2C1=O	i	0.77	/	/	-3.2	100	-18
Cc1cc(OCC(=O)O/N=C(\N)c2ccccc2)ccc1Br	i	0.93	-25	27	-0.1	105	-5
Cc1cc(Oc2ccc(=O)n(C)n2)nc(SCC(N)=O)n1	i	1.1	/	/	/	94	/
Cc1ccc(Cl)cc1NC(=O)c1cccc(OC(F)F)c1	i	0.85	-38	163	0.3	96	-11
COCCn1nnnc1C(c1ccccc1OC)N1CCN(c2ccccc2)CC1 (stereo not drawn)	i	0.98	/	/	-1.1	96	-1
O=c1c(C=Nc2ccc(Oc3ccccc3)cc2)c[nH]n1-c1cccc(Cl)n1	i	1.1	4	67	-3.0	108	1
COc1cc(C(=O)N=c2sc3ccccc3n2C)cc(OC)c1OC	i	0.96	/	/	/	99	1
N#CCSc1nc2c(cc1C#N)CCCC2	i	0.99	63	108	0.5	106	-19
CCCc1cc(C(=O)NNC(=S)Nc2cccc(C)c2)cs1	i	1	-4	108	-0.7	96	-3
Cc1ccc(SCC(=O)Nc2ccccc2C(=O)N2CCOCC2)cc1	i	1.1	/	/	-0.9	103	2
CCN(CC)CCn1c(SCC(=O)Nc2cccc(OC)c2)nc2c(sc3ccccc32)c1=O	i	0.84	-27	66	/	177	-5
Cc1ccc2[nH]c3c(N4CCCCCC4)ncnc3c2c1	/	/	62	71	1.1	107	-7
COc1ccc(-c2cc(C(F)F)n3ncc(C(=O)Nc4cc(C)on4)c3n2)cc1	i	0.92	29	66	/	99	-2
O=C(c1cc(-c2ccccn2)nc2ccccc12)N1CCN(c2ncccn2)CC1	i	1	/	/	/	101	-3
CC1=C(C#N)C(=O)OC(C)(C)C1	?	/	/	/	-2.7	105	-6
(more compounds)
SMILES	HSV replic up	HSV replic up primary fold	INS promoter inh	INS promoter inh cell count	GALR2 ag	RGS16-Gao	PKD1 inh
NC(=O)c1ccsc1NC(=O)Cc1ccc([N+](=O)[O-])cc1	i	0.85	7	101	/	101	0
Clc1ccc(-c2c[n+](Cc3ccc(Br)cc3)c3n2CCCCC3)cc1	i	0.66	/	/	/	97	/
Cc1ccccc1C(=O)Nc1ccc(O)cc1C(=O)O	i	0.92	/	/	/	104	-9
CCn1c(CNc2cccc(Cl)c2)nnc1SCC(=O)OC1CCCCC1	/	/	/	/	-1.6	103	-6
CCCCCOC(=O)NC1CCS(=O)(=O)C1 (stereo not drawn)	i	0.86	27	193	/	100	10
O=C(COc1ccc(Cl)cc1Cl)NCc1ccncc1	i	0.96	44	70	-1.0	100	-7
O=C(NCc1ccco1)c1ccc(Cl)c(S(=O)(=O)Nc2ccccc2)c1	i	1	/	/	/	97	-1
Cn1nc(NC(=O)C2CCC2C(=O)O)c2c(F)cccc21 (stereo not drawn)	i	0.9	/	/	/	101	/
COC(=O)c1c(C(=O)OC)c(-c2ccc(Cl)cc2)n2c1CS(=O)(=O)C2	i	0.98	0	71	/	101	-1
Cc1ccc(NC(=O)N2CCC(C(=O)NCc3ccccc3)CC2)cc1	i	0.82	-50	131	-0.9	104	5
CN(C)c1ncc(CN2CCC(CO)(CCCc3ccccc3)CC2)s1	i	0.84	/	/	/	101	/
C=CCn1c(=O)c2ccccc2n2c(SCC(=O)NCc3cccs3)nnc12	i	1.1	-19	61	-0.2	103	12
Cc1cc(C(=O)NCC23CC4CC(CC(C4)C2)C3)c(C)o1	i	1	/	/	/	105	-4
O=C(CCN1CCCC1)Nc1ccccc1	i	0.91	43	117	-3.0	102	4
COc1ccccc1-c1cn(C(C)(C)C)nc1C	i	1	/	/	/	96	-6
CCCCC(=O)NCCNc1nc2c(c(=O)n(C)c(=O)n2C)n1Cc1ccc(F)cc1	i	0.93	/	/	-2.2	106	-11
O=C(COc1cccc2ccccc12)NNC(=O)Nc1ccccc1	i	1	-7	79	-1.1	105	-7
CCCCNc1c(NC(C)=O)c(=O)oc2ccccc12	i	0.99	-43	121	-1.6	80	-4
COC(=O)c1ccc(OCC(=O)c2ccc(C)c(C)c2)cc1	i	0.87	3	92	-1.2	102	-15
CCOC(=O)c1oc2ccccc2c1NC(=O)c1cc(OC)cc(OC)c1	i	0.82	-31	154	-3.8	100	8
CC(C)(C)c1ccc(OCC(=O)NNC(=O)Cc2cccs2)cc1	/	/	/	/	-2.4	112	4
CCc1c(C(=O)NNC(=S)NCC2CCCO2)csc1C (stereo not drawn)	i	1.1	-17	110	-0.3	86	-7
Cc1nn(Cc2c(F)c(F)c(F)c(F)c2F)c(C)c1NC(=O)c1ccc(COc2ccccc2Cl)cc1	i	1	29	58	-0.1	174	20
CCOC(=O)C1CCCN(C(=O)c2cc3ccccc3oc2=O)C1 (stereo not drawn)	i	0.94	-29	95	/	106	-3
Cc1ccccc1C(=O)Nc1cc(-c2cc(C(C)(C)C)oc2C)nn1C	i	1	/	/	/	93	/
New compounds follow.
SMILES	HSV replic up	HSV replic up primary fold	INS promoter inh	INS promoter inh cell count	GALR2 ag	RGS16-Gao	PKD1 inh
Oc1ccc(-c2cn3ccccc3n2)cc1	i	0.96	/	/	/	103	/
O=C(CNC(=O)c1ccc(S(=O)(=O)N2CCCCC2)cc1)N/N=C/c1ccco1	i	0.87	-114	60	/	110	2
COc1ccc(-c2nc(NC(=O)c3cc(C(C)(C)C)nn3C)sc2C)cc1	i	0.83	/	/	-0.9	100	-3
CC1(C)[C@@H](O)CC[C@]2(C)[C@H]3C(=O)C=C4[C@@H]5C[C@@](C)(C(=O)O)CC[C@]5(C)CC[C@@]4(C)[C@]3(C)CC[C@@H]12	i	0.72	14	93	0.1	107	-6
O=C(Nc1ccc(-c2csc(-c3ccccc3)n2)cc1)c1ccccc1	i	0.88	13	86	0.4	98	-1
N#CC1=C(N)NC(SCC(=O)O)=C(C#N)C12CCCC2	i	0.96	/	/	-1.5	110	-11
C=CCOC(=O)CC(NC(=O)c1ccccc1)c1ccccc1 (stereo not drawn)	i	1	-67	193	0.2	100	-11
Cc1noc(C)c1C(=O)NC1CCCc2ccccc21 (stereo not drawn)	i	1.2	34	55	-0.5	107	-4
Cc1sc(NC(=O)c2ccco2)nc1-c1ccccc1	i	0.9	3	41	1.4	137	-3
CC(=O)CSc1ncnc2scc(-c3ccc(F)cc3)c12	i	0.87	/	/	/	100	-2
Cc1nc(N2CCC(C)CC2)c2oc3ccccc3c2n1	i	0.83	-92	121	-1.2	98	-5
CCN1C(=O)C2(C(C#N)=C(N)Oc3n[nH]c(COC)c32)c2ccccc21 (stereo not drawn)	i	0.87	-45	90	-0.6	106	-5
Cc1cccc(NC(=S)NCCc2ccc(F)cc2)c1C	i	0.92	/	/	/	102	-11
CCOc1ccccc1NC(=O)COC(=O)C(CC)c1ccccc1 (stereo not drawn)	i	1	/	/	/	107	-4
O=S(=O)(c1cccc(-c2nc3n(n2)Cc2ccccc2-3)c1)N1CCCC1	i	0.93	8	101	-2.5	106	-4
NS(=O)(=O)c1ccc(CCNC(=O)CSc2nnc3ccccn23)cc1	i	1.1	/	/	/	91	-6
CCOC(=O)Cn1nc(C)c(NC(=O)c2ccc(Cl)c([N+](=O)[O-])c2)c1C	i	0.93	-53	112	/	97	-6

Single records (already shown). Order of values: HSV replic up, HSV replic up primary fold, INS promoter inh, INS promoter inh cell count, GALR2 ag, RGS16-Gao, PKD1 inh
O=C(Nc1ccc(-c2csc(-c3ccccc3)n2)cc1)c1ccccc1 is listed as i, 0.88, 13, 86, 0.4, 98, -1
Cc1noc(C)c1C(=O)NC1CCCc2ccccc21 (stereo not drawn) is listed as i, 1.2, 34, 55, -0.5, 107, -4
O=S(=O)(c1cccc(-c2nc3n(n2)Cc2ccccc2-3)c1)N1CCCC1 is listed as i, 0.93, 8, 101, -2.5, 106, -4
NS(=O)(=O)c1ccc(CCNC(=O)CSc2nnc3ccccn23)cc1 is listed as i, 1.1, /, /, /, 91, -6

Compound activity: PubChem BioAssay, several laboratories
